# From PubChem BioAssay
# Rango complex inh: qHTS Assay for Inhibitors of Rango (Ran-regulated importin-beta cargo) - Importin beta complex formation; Potency, µM (titrated, usually from 92.2 µM), for inactives: top-dose inhibition of complex formation; Importin subunit beta-1 (Homo sapiens), Q14974; 340,000 tested, 0.031% active; Rango CFP/YFP FRET sensor + importin beta, 45 min; active = rising FRET ratio curve, often small or poorly fitted; inconclusive = mostly compound fluorescence or quenching in the first reads; inactive = flat curves in all reads;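 also: potency is read from the fitted curve at half-maximal effect; 0% = DMSO wells and 100% = buffer wells lacking importin beta; nearly all actives have a fitted effect of over 15% in size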
# Target sequence (Q14974 whole entry, looked up): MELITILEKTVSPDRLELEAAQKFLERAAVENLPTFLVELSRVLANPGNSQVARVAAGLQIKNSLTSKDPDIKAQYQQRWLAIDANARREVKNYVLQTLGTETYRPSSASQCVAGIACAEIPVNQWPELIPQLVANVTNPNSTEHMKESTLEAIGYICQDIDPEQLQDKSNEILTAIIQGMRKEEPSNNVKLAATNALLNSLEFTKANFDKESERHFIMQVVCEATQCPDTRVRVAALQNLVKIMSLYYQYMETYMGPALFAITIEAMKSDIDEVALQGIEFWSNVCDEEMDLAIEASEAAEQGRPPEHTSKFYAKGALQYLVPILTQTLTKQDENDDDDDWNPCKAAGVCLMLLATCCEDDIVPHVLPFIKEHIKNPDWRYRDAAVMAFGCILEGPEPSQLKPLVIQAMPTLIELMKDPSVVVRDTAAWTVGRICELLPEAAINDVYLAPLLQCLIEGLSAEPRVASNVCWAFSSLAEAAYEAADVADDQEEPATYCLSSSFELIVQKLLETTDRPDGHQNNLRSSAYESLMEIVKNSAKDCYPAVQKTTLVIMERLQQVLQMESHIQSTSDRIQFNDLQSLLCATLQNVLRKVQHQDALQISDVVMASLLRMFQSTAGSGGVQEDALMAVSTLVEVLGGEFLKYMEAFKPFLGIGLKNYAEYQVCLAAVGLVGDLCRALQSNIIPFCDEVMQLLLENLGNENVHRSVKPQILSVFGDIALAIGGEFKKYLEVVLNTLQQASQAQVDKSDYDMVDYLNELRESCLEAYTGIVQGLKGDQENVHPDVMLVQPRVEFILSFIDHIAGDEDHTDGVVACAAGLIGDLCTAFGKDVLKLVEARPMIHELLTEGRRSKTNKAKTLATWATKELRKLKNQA
#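 Inhibition scored from the CFP 486 nm/YFP 530 nm FRET ratio 45 min after adding 0.125 microM importin beta to 50 nM Rango biosensor preincubated 5 min with compound (room temperature, PBS with DTT, Tween-20, BSA). No-importin wells as positive control.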
# Rango dissoc inh: qHTS Assay for Inhibitors of RanGTP induced Rango (Ran-regulated importin-beta cargo) - Importin beta complex dissociation; Biochemical FRET Rango-importin beta, RanGTP-induced dissociation; Potency, µM (titrated, usually from 46.1 µM), inactives show at the highest dose activity change, negative = inhibition; 340,000 tested, 0.071% active; AID 540253, 2011; active means falling FRET ratio curve, often poorly fitted, with flat reads before Ran was added; inconclusive means other falling curves, or compound fluorescence or quenching; inactive means flat or rising ratio curve;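 also: potency is read from the fitted curve at half-maximal effect; % of control where 0% means no effect; nearly all actives have a fitted effect of over 45% in size; -100% = wells without RanGTP and RCC1; the record marks most hits as doubtful in a second field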
#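 Compounds sat 5 min at room temperature with 0.1 uM Rango biosensor plus 0.25 uM importin beta, then FRET pre-read. RanGTP-RCC1 (0.6 uM Ran, 2mM GTP, 0.2 uM RCC1) added for 45 min, and the CFP/YFP post-read measured blocked complex dissociation.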
# miR-21 reporter: qHTS Assay for Modulators of miRNAs and/orActivators of miR-21. AID 2288, 2010. Potency, µM (doses to about 38.3 µM), for inactives: at the highest dose reporter change, positive = more light. 340,000 tested, under 10 active. HeLa miR-21 FLuc reporter, luciferase, 48 h; active = well fitted rising curve with a large enough effect; inconclusive = small, poorly fitted or top-dose-only effect; inactive = no such curve, though single readings can be large or run the other way;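 also: % of control where 0% means no effect; miR-21 action dims this reporter so a rising signal means less miR-21 action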
#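 HeLa cells endogenously expressing miR-21, stably carrying CMV-driven firefly luciferase with a downstream miR-21 binding site, 2000 cells/well. Titrations up to approximately 40 uM, 48 hours; luciferase luminescence read.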
# GLA inh pH 4.5: qHTS Assay for Inhibitors of Human alpha-Galactosidase at pH 4.5; Alpha-galactosidase A (Homo sapiens), P06280; purified enzyme, 4-MU-alpha-Gal fluorescence, pH 4.5; activity change, negative = inhibition, % at 105 µM; 230,000 tested, under 10 active; inconclusive = small, poorly fitted or top-dose-only inhibition, or a rising curve; inactive = flat fitted curve, though single readings scatter; no compound was filed as active;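 also: 0% = full activity with enzyme and -100% = basal without enzyme; dose as in the result columns while the protocol names 77 µM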
# The depositor's hits bear a star; ? = inconclusive; / = no result given; & = joins results of further samples. Not all compounds are listed; the hit share may differ from the screen's.
Rango complex inh | Rango dissoc inh | miR-21 reporter | GLA inh pH 4.5 | SMILES
0.0% | 0% | -21% | / | O=S(=O)(Nc1cccc2ccccc12)c1cccs1
0.0% | 2% | -15% | / | Cc1nn(-c2cccc(C(F)(F)F)c2)c(=O)c2ccccc12
-0.6% | 16% | -12% | 5 | Nc1c2c(nc3sc4c(c13)CCCC4)CCCCCC2
3.5% | 2% | 8% | 10 | COc1ccc(C)cc1N(CC(=O)Nc1cccnc1)S(=O)(=O)c1ccc(C)cc1
0.1% | 0% | 9% | / | CCc1nc(Nc2ccccc2OC)c2oc3ccccc3c2n1
0.1% | 9% | 1% | -27 | COc1cccc(C(=O)Nc2cc(NC(=O)c3ccco3)ccc2OC)c1
-1.9% | -4% | 0% | / | CCOC(=O)N1CCN(C(=O)C2CCN(S(=O)(=O)N3CCC4(CC3)OCCO4)CC2)CC1
0.1% | -12% | / | / | O=C1CC(=C2c3ccccc3-c3ccccc32)C(=O)N1CCN1CCN(c2ccccc2)CC1
-2.2% | -6% | -8% | -1 | CCNC(=O)/C(=C/c1cccc([N+](=O)[O-])c1)NC(=O)c1ccc(C)cc1
? | -3% | -5% | -3 | CCCCC(CC(C)O)c1n[nH]c(=S)n1-c1ccccc1 (stereo not given)
1.6% | -14% | -34% | -1 | COc1ccc(CCNC(=O)C2CC(c3ccc([N+](=O)[O-])cc3)=NO2)cc1 (stereo not given)
0.5% | 1% | / | / | CCOC(=O)c1c(C)[nH]c(C(=O)OCC(=O)Nc2ccccc2)c1C
4.9% | 12% | -2% | 4 | CCOC(=O)CSc1nnc(CNc2nc(-c3ccccc3)cs2)n1C
3.2% | -8% | 1% | 9 | NC(=O)COC(=O)[C@@H]1CC(O)CN1S(=O)(=O)c1ccc2c(c1)OCCO2 (stereo not given in full)
4.8% | 2% | -22% | -11 | C=CCc1c(C)nc(SC)nc1Nc1ccc(C(C)=O)cc1
-1.6% | 1% | -51% | -16 | Cc1ccc2nc(-c3ccc(NC(=O)CSc4nccc(=O)[nH]4)cc3)sc2c1
1.1% | 1% | -2% | -5 | CC1(C)CC(=O)C(N=Nc2ccc(Br)cc2)=C(O)C1
-2.4% | -6% | / | / | COc1ccc(COC(=O)c2ccc(Br)c(S(=O)(=O)N3CCOCC3)c2)cc1F
-0.2% | -10% | -12% | 5 | NC(=O)c1oc2ccccc2c1NC(=O)C1COc2ccccc2O1 (stereo not given)
-0.2% | -3% | / | / | O=c1ccn([C@@H]2O[C@H](CNCc3ccc(-n4cccn4)cc3)[C@@H](O)[C@H]2O)c(=O)[nH]1
1.2% | -14% | -9% | -3 | CC1CCCC(NC(=O)CCC(=O)c2ccc(F)cc2)C1C (stereo not given)
-0.9% | -11% | -14% | 3 | CC(=O)NC(CC(=O)NC12CC3CC(CC(C3)C1)C2)c1ccccc1 (stereo not given)
8.2% | -18% | -57% | -4 | O=[N+]([O-])c1nn(-c2ccc3c(c2)OCCO3)n(O)c1=NCc1ccc(F)cc1Cl
-4.2% | 1% | -56% | -6 | CCCCCCC(=O)c1c(C)[nH]c(C(=O)OCC)c1C
-0.7% | -2% | -52% | -2 | CN(C)/C=N/c1sc2c(c1C#N)CCCC2
? | -11% | -4% | -10 | CCOc1ccc(C2C(C(=O)c3ccco3)=C(O)C(=O)N2Cc2cccnc2)cc1 (stereo not given)
? | 11% | 2% | 0 | Cc1cccc2c1c1ccc3c(c1n2C)C(=O)C=CC3=O
1.8% | 15% | / | / | CN(C)c1ccc(C(=O)OCC(=O)Nc2cccc(S(=O)(=O)N3CCCC3)c2)cc1
2.8% | -21% | / | / | CN(C)C(=O)c1ccc(-c2nnc(OCc3nc4ccccc4n3C)c3ccccc23)cc1
-0.4% | -4% | 11% | -6 | O=C(CCSc1ccc(Cl)cc1)c1cccs1
1.4% | -12% | -30% | 0 | O=C(Cc1ccc(Cl)cc1)Nc1ccc(Br)cc1
-1.3% | -17% | 15% | / | O=S(=O)(CCc1nc2ccccc2[nH]1)c1ccc(Cl)cc1
-0.7% | 0% | / | / | CC(C)(C)c1ccc(OCCC(=O)NCC(c2cccs2)N2CCOCC2)cc1 (stereo not given)
-0.8% | -1% | -4% | 2 | O=C(Nc1ccc(F)cc1)c1cnc(-c2ccccc2)nc1-c1ccccc1
-5.4% | 20% | / | / | CCN(CC(=O)Nc1ccc(NC(C)=O)cc1)C(=O)Cc1coc2cc(C)c(C)cc12
? | 3% | 2% | / | Cn1c(SCC(=O)NCc2ccco2)nnc1C1CCCC1
? | ? | -3% | -7&2 | COc1ccc(C2=CC3=C(Br)C(=O)C(C)(OC(=O)C4CCCC4)C(=O)C3=CO2)cc1 (stereo not given)
? | ? | -12% | -5 | CCN1C=C(Cc2ccc(OC)cc2)C2=C(C1)C(c1ccc(OC)cc1)C(C#N)=C(N)O2 (stereo not given)
0.7% | -12% | 3% | / | CCOC(=O)N1CCN(S(=O)(=O)N2CCCC(C(=O)NCCc3ccc(OC)c(OC)c3)C2)CC1 (stereo not given)
5.3% | 4% | -32% | -11 | COc1cccc(C(=O)Nc2ccc(NC(=O)C3CC3)cn2)c1

# Four structures already listed, ordered by count of non-hydrogen atoms, ascending.
Rango complex inh | Rango dissoc inh | miR-21 reporter | GLA inh pH 4.5 | SMILES
-0.7% | -2% | -52% | -2 | CN(C)/C=N/c1sc2c(c1C#N)CCCC2
? | 11% | 2% | 0 | Cc1cccc2c1c1ccc3c(c1n2C)C(=O)C=CC3=O
1.2% | -14% | -9% | -3 | CC1CCCC(NC(=O)CCC(=O)c2ccc(F)cc2)C1C (stereo not given)
-5.4% | 20% | / | / | CCN(CC(=O)Nc1ccc(NC(C)=O)cc1)C(=O)Cc1coc2cc(C)c(C)cc12

# Later entries:
Rango complex inh | Rango dissoc inh | miR-21 reporter | GLA inh pH 4.5 | SMILES
-4.6% | 0% | / | / | CCNc1nc(NCC)n2c(SCC(=O)Nc3ccc(NC(C)=O)cc3)nnc2n1
0.0% | -3% | -8% | 4 | COc1ccc(OC)c(/C=N/c2c(-c3ccc(O)c(OC)c3)nc3ccccn23)c1
-0.6% | -15% | 14% | 6 | CCCCOc1ccc(NC2=NC3(CCCCC3)N=C(N)N2)cc1
? | ? | -7% | 3 | COc1ccc(C2NC(=O)c3sc4nc(C)c(C(C)=O)c(-c5ccc(Cl)cc5)c4c3N2)cc1 (stereo not given)
-2.8% | -11% | -12% | -11 | CCn1ccc(-c2ccccc2)c(C#N)c1=O
? | ? | 1% | -2 | Cc1cc2nc3c(=O)[nH]c(=O)[nH]c3nc2c([N+](=O)[O-])c1N
? | ? | 12% | / | Cc1ccc2nc3c(cc(C(=O)NCCc4ccccc4)c(=N)n3CCCN3CCOCC3)c(=O)n2c1
1.2% | 1% | -1% | 3 | O=C(c1ccc([N+](=O)[O-])cc1)N1CCCC1
1.6% | 3% | 3% | -2 | C=CCNS(=O)(=O)c1ccc2c(c1)n(C)c(=O)n2C
-0.1% | 1% | -10% | / | COc1cc2c(cc1OC)C(c1ccc(Br)cc1)CC(=O)N2 (stereo not given)
1.0% | 8% | 8% | -1 | Cc1oc(-c2ccc(Cl)cc2)nc1CN1CCCC(C(=O)NCCCN2CCCC2=O)C1 (stereo not given)
-0.8% | 0% | -36% | -15 | O=C(N/N=C/C(Cl)=C/c1ccccc1)c1cnccn1
-1.1% | -5% | 15% | -4 | COc1ccc(-c2c([C@H]3[C@@H]4C=CCC[C@@]4(C)C(=O)N3Cc3ccccc3)ccc3ccccc23)cc1OC
0.1% | 11% | 0% | -8 | COC(=O)c1ccccc1NC(=O)CC#N
0.8% | -7% | 1% | -10 | c1ccc(CNc2nnnn2-c2ccccc2)cc1
? | -28% | 19% | -3 | Cc1ccc(Cn2c(=N)n(CC(O)c3ccco3)c3ccccc32)cc1 (stereo not given)
0.7% | 6% | 1% | 0 | Cc1cc(S(=O)(=O)N2CCN(c3ccccc3O)CC2)c(C)s1
-0.4% | 15% | -53% | -13 | CNC(=O)c1c(Br)cnn1-c1ccc(C)cc1
-1.2% | -10% | -9% | -2 | COC(=O)c1sc2cc(C(F)(F)F)cnc2c1-c1ccccc1
-2.1% | -3% | -52% | -16 | COc1ccc(CN2CN(S(=O)(=O)c3cccs3)c3nc4ccccc4nc32)cc1
-0.7% | 6% | -9% | 5 | CCOC(=O)c1sc(NC(=O)C2C3C=CC(C3)C2C(=O)O)nc1C (stereo not given)
-0.6% | -4% | ? | 14 | N#Cc1cccc(NC(=O)COC(=O)c2ccccc2C(=O)c2ccc(Cl)c([N+](=O)[O-])c2)c1
0.0% | 1% | -4% | / | COc1cccc(C(=O)NC(C)c2ccc(-c3ccccc3)cc2)c1OC (stereo not given)
? | -8% | 2% | 2 | CCOc1ccc(C(CC(=O)O)NC(=O)COc2ccccc2)cc1 (stereo not given)
0.2% | -16% | / | / | COc1ccc(-c2cn(CCO)c(-c3ccncc3)n2)cc1
0.7% | -8% | -36% | 6 | Cc1ccc(-n2nc(C)c(/C=N/NC(=O)c3cccs3)c2Cl)cc1
-3.7% | 6% | 0% | -4 | CCn1c(SCC(=O)OC)nc2sc3c(c2c1=O)CCC3
? | ? | 2% | -10 | Cc1cc(=O)[nH]c(SCC(=O)NCc2ccco2)n1
0.3% | 6% | -6% | 7 | Cn1c(COc2ccccc2)nnc1SCCN1CCOCC1
3.1% | 3% | -1% | 0 | O=C(CSc1nc(C2CCCCC2)nc2ccccc12)N1CCCC1
-2.2% | -7% | -8% | -6 | O=C(NCCN1CCOCC1)c1ccc(CS(=O)(=O)c2c(Cl)cccc2Cl)o1
2.2% | 16% | / | / | CC(C)OCCCNC(=O)c1cccc2c1C(=O)c1ccc(Cl)cc1S2(=O)=O
1.3% | 18% | / | / | O=C1CC2(CCN(C(=O)c3cccc([N+](=O)[O-])c3)CC2)Oc2ccccc21
-1.2% | 13% | 0% | / | COc1cccc(N2CCN(C(=S)Nc3ccccc3)CC2)c1
? | ? | -4% | 4 | CCNC(=O)c1c(O)c2ccccc2[nH]c1=O
1.4% | 1% | -24% | / | Cc1ccc(-c2nc(C#N)c(N3CCC(C)CC3)o2)cc1
? | 0% | 7% | 1 | CCCCc1nc2ccc(S(=O)(=O)O)cc2[nH]1
-0.8% | -5% | -2% | 12 | CC(C)c1ccc(-c2c(C#N)c(N)nc(SCC(=O)N3CCCCCC3)c2C#N)cc1
1.3% | -5% | / | / | COC(=O)C1OCOC2C(C(=O)OC)OCOC12 (stereo not given)
? | ? | -17% | -18 | Cn1c(/C(C#N)=C/Nc2ccccn2)nc2ccccc21

# Four of the compounds above, in CSV form.
mol,Rango complex inh,Rango dissoc inh,miR-21 reporter,GLA inh pH 4.5
Cc1ccc(-c2nc(C#N)c(N3CCC(C)CC3)o2)cc1,1.4%,1%,-24%,/
CCCCc1nc2ccc(S(=O)(=O)O)cc2[nH]1,?,0%,7%,1
CC(C)c1ccc(-c2c(C#N)c(N)nc(SCC(=O)N3CCCCCC3)c2C#N)cc1,-0.8%,-5%,-2%,12
COC(=O)C1OCOC2C(C(=O)OC)OCOC12 (stereo not given),1.3%,-5%,/,/

# (continued)
Rango complex inh | Rango dissoc inh | miR-21 reporter | GLA inh pH 4.5 | SMILES
4.3% | 25% | -15% | -4 | COc1ccc(CNC(=O)c2cc(-c3ccccc3OC)on2)cc1
2.3% | -1% | -1% | -6 | CCCCCOc1ccccc1C(=O)NCCCCCC(=O)O
2.7% | 6% | -3% | 6 | COc1ccc2cc(C(c3nnnn3C3CCCC3)N3CCOCC3)c3nnnn3c2c1 (stereo not given)
-5.5% | -23% | / | / | Cc1ccc(NS(=O)(=O)c2ccc(C)c(NC(=S)NCCN3CCOCC3)c2)c(C)c1
? | -13% | / | / | CCCCn1c(N)c(N(CC(C)C)C(=O)CSCc2cccc(C)c2)c(=O)[nH]c1=O
-1.6% | 9% | 0% | 7 | CCOc1cc(CNCCO)ccc1OCC(=O)NC(C)(C)C
-1.1% | -5% | -3% | -7 | Cc1ccc(N2C(=O)[C@@H]3[C@H](C2=O)[C@H]2C=CC=NN2[C@@H]3C(=O)Nc2ccc(Cl)cc2)cc1
-2.4% | -5% | -42% | / | CCC(C)Nc1nc(N)c([N+](=O)[O-])c(NCc2ccccc2)n1 (stereo not given)
